HSD17B inh: qHTS Assay for Inhibitors of HSD17B4, hydroxysteroid (17-beta) dehydrogenase 4 | Potency, µM (series often up to 57.1 µM), for the others: at the highest dose activity change, negative = inhibition, actives largely listed as inhibitors | recombinant HSD17B10, NADH fluorescence kinetic; many of its hits are not listed in these tables | AID 893, 2007 | 75,000 compounds, 7.6% hits | 3-hydroxyacyl-CoA dehydrogenase type-2 (Homo sapiens), Q99714; active means well fitted inhibition curve with a large enough effect; inconclusive means small, poorly fitted or top-dose-only effect; inactive means no such curve, though single readings can be large or run the other way;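 further: the protocol describes HADH2 (HSD17B10) and not the HSD17B4 of the title; nearly all actives have a fitted effect of over 70% in size; most hits overshoot -100% by far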
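Enzyme plus compound, 15 min room temperature; substrate mix added (NAD+ 1 mM, beta-hydroxybutyryl-CoA 90 uM final); plates read kinetically for NADH fluorescence. HADH2 was His-tagged, E. coli-derived, 20 nM.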
The depositor's hits bear a star; ? = inconclusive; & = joins results of further samples; [ ] = dose if it differs, or a comment. On the % scale 0 is the no-effect control and ±100 the full control effect; potency means the concentration at half of the fitted maximal effect. This is a subset; count on the stated rates, not on these rows.

nr	canonical_smiles	HSD17B inh
1	CCOc1ccc(Oc2nc(Nc3ccc(C)cc3)nc(N(C)C)n2)nn1	-3.7%
2	O=C(CSc1ccccn1)c1ccc2c(c1)OCO2	-3.9%
3	CCCc1cc(=O)n2[nH]cnc2n1	4.9%
4	C=CCNC(=O)c1sc(=S)n(-c2ccc(C(=O)OCC)cc2)c1N	?
5	O=c1[nH]c(N2CCOCC2)nc2c1CCCC2	5.5%
6	COCC(C)n1c(C)cc(C(=O)COC(=O)c2c(C)nn(-c3ccccc3)c2C)c1C (stereo unspecified)	-0.3%
7	COc1ccc(-c2nc(C#N)c(NC(C)c3ccccc3)o2)cc1OC (stereo unspecified)	25.1µM*
8	Cc1ccc(S(=O)(=O)NC2(C(F)(F)F)NC(=O)N(C)C2=O)cc1 (stereo unspecified)	3.4%
9	O=C(c1cccnc1)N1CCN(Cc2ccc3c(c2)OCO3)CC1	5.2%
10	CCCN(CCC)S(=O)(=O)c1ccc2c(c1)CCCN2C(C)=O	6.9%
11	O=S(=O)(c1ccc(S(=O)(=O)N(Cc2ccc(F)cc2)C2CCCC2)cc1)N1CCCC1	0.8%
12	CCOC(=O)C1Cc2c([nH]c3ccccc23)CN1 (stereo unspecified)	?
13	O=C(Cc1ccccc1)N[C@H](c1ccccc1)P(=O)(O)CO	11.8%
14	CN(C)S(=O)(=O)N1CCN(C(=O)N2CCCCC2)CC1	6.1%
15	[O-][N+]12CCN(CC1)c1ccccc12	3.8%
16	O=C(c1c(F)cccc1F)N1CCN(c2ccccc2F)CC1	-0.9%
17	CCOC(=O)Cn1cnc2sc3c(c2c1=O)CCC3	-14.2%
18	O=c1c(-c2nc3ccccc3o2)c2oc3ccccc3n2c2ccccc12	3.98µM*
19	CCCS(=O)(=O)N1CCCC(C(=O)NCCCN(C)c2ccccc2)C1 (stereo unspecified)	7.4%
20	CCn1nc(C(=O)NCCc2ccc(S(N)(=O)=O)cc2)c2ccccc2c1=O	10.7%

2 compounds picked at random from those above, as already listed:
nr	canonical_smiles	HSD17B inh
6	COCC(C)n1c(C)cc(C(=O)COC(=O)c2c(C)nn(-c3ccccc3)c2C)c1C (stereo unspecified)	-0.3%
10	CCCN(CCC)S(=O)(=O)c1ccc2c(c1)CCCN2C(C)=O	6.9%

Following part:
nr	canonical_smiles	HSD17B inh
21	COC(=O)c1cc(N2C(=O)C3C(C2=O)C2(C)C=CC3(C)O2)ccc1Cl (stereo unspecified)	?
22	C[C@@H]1/C(=N/O)CC2C[C@@H]1C2(C)C	-13.1%
23	O=C(C1CCN(S(=O)(=O)N2CCOCC2)CC1)N1CCN(c2ccccc2)CC1	-2.0%
24	CC1(C)C(=O)OC(C(=O)c2ccccc2)C(C)(C)C1=O (stereo unspecified)	4.8%
25	CC(C)C(=O)NCCn1ccc2ccccc21	2.0%
26	C=C(C)Cn1c(SCC#N)nc2ccccc2c1=O	?
27	CC1(C)CC(=O)C=C(Nc2ccccc2NC(=O)c2cnccn2)C1	4.9%
28	CN1CCN(CCCNC(=O)Cn2nc(-c3ccccc3)ccc2=O)CC1	-28.4%
29	COCC(C)NC(=O)NC(=O)c1ccc(Cl)cc1 (stereo unspecified)	5.4%
30	COC(=O)c1ccc(CSc2nnc(CNC(=O)c3cccs3)o2)o1	-2.0%
31	CC(=O)c1ccc(OC2C(O)COC2/C=C/c2ccc(Cl)cc2)cc1 (stereo unspecified)	0.2%&1.1%[11.4 µM]
32	C=C/C1=C/Cc2ccccc2C(C[N+](=O)[O-])C(C(=O)OC)(C(=O)OC)C1 (stereo unspecified)	-29.4%[11.4 µM]
33	CCOC(=O)c1cnn(-c2ccccn2)c1N	-0.3%
34	Cc1cc2occ(CC(=O)O)c2cc1C	5.5%
35	CCOC(=O)C1CCN(Cc2ccccc2C(F)(F)F)CC1	14.8%
36	COC(=O)Cn1nc(-c2ccccc2)c2ccccc2c1=O	-1.7%
37	CNc1oc(-c2ccco2)nc1C#N	31.6µM*
38	O=C(O)c1ccc(COc2ccccc2Cl)cc1	-0.4%
39	CC(=O)c1c(C)c[nH]c1C	-2.8%
40	Cc1nc(NC(CC(C)C)C(=O)O)c2nc(C)oc2n1 (stereo unspecified)	5.5%
41	COc1ccc(/C(O)=C2/C(=O)C(=O)N(CCN(C)C)C2c2ccc(F)cc2)cc1Cl (stereo unspecified)	0.4%
42	Cn1c(NC(=O)c2cccc(Cn3cc(Cl)cn3)c2)nc2ccccc21	?
43	O=C1CC(c2cc3c(cc2Br)OCO3)C2=C(CCCC2=O)N1 (stereo unspecified)	4.4%
44	CN1CCC2(CC1)CCN(S(=O)(=O)c1ccccc1)CC2	-4.1%
45	CCNC(=O)CN(C1CCCCC1)S(=O)(=O)c1ccc(F)cc1	-0.5%
46	CCOC(=O)C1=C(CN2CCSCC2)NC(=O)NC1c1cc(C)ccc1C (stereo unspecified)	?
47	COC(=O)C/C=C1\c2ccccc2[C@H](OC)[C@H]1C	2.7%[11.4 µM]
48	O=C(O)CC(c1ccccc1)n1cccc1 (stereo unspecified)	1.5%
49	CN(C(=O)c1coc(=O)c2ccccc12)c1ccc(F)cc1	0.4%
50	COC(=O)c1cn(NC(=O)c2ccc3c(c2)OCO3)c(=O)c2ccccc12	-6.5%
51	Nc1cc(C(=O)N2CCCC2)cc(C(=O)N2CCCC2)c1	-11.5%
52	COc1ccc(NC(=O)C2CCC(=O)N2S(=O)(=O)c2ccc(C)cc2)c(OC)c1 (stereo unspecified)	5.6%
53	Cc1cc(C)c(Cn2c(=O)n(CCCC(=O)NCc3ccco3)c(=O)c3ccccc32)c(C)c1	-6.0%
54	O=C(C1CCC1)N1CCN(Cc2ccccc2)CC1	3.6%
55	Cc1cccc(OCCC(=O)Nc2ccc(S(=O)(=O)N3CCCC3)cc2)c1	-5.6%
56	O=C(Cc1c[nH]c2ccccc12)N1CCc2ccccc21	-6.1%
57	Cc1ccc(C(C)C)cc2c(C)ccc1-2	-0.4%
58	OCCNc1nc2ccc(Cl)cc2[nH]1	6.4%
59	COc1ccc2cc(C)c(SCC(=O)Nc3cc(C)on3)nc2c1	?
60	OC[C@@H]1O[C@@H](n2cnc3cncnc32)[C@@H](O)[C@H]1O	4.3%
61	Cc1ccc(C)n1NC(=O)c1ccco1	?
62	CCc1ccc(NC2=NC(C(=O)c3ccccc3)CC(=O)N2)cc1 (stereo unspecified)	5.3%
63	O=C(CSc1nc2ccccc2o1)NCc1n[nH]c(=O)c2ccccc12	0.1%
64	COc1ccc(S(=O)(=O)N2CCN(C(=O)NCc3ccccc3)CC2)cc1	-9.6%
65	CCOc1ccc(CNc2ccc3c(c2)ncn3C)cc1	6.6%
66	O=C1c2ccccc2C(=O)c2c1ccc(C(=O)O)c2-c1ccc2ccccc2c1	-7.3%[11.4 µM]
67	Nc1nsnc1C(=O)NCCO	?
68	O=C(O)C1C2C=CC(C2)C1C(=O)Nc1cccc(F)c1 (stereo unspecified)	4.1%
69	CCOC(=O)/C=C(\C)Sc1cc(=O)oc2ccccc12	-7.4%
70	COc1cc2c(C(=O)N3CCN(C4CCCCC4)CC3)cn(CC(C)C)c(=O)c2cc1OC	4.9%
71	O=C(Nc1ccn(-c2ccccc2)n1)c1ccc(S(=O)(=O)N2CCCCCC2)cc1	?
72	Nc1ccccc1-c1nc2ccccc2[nH]1	25.1µM*
73	Cc1ccc(Cl)cc1N1CCN(C(=O)C2CCN(S(=O)(=O)c3c(C)nn(C)c3C)CC2)CC1	8.9%
74	COc1ccccc1CNC(=O)C1CCN(S(=O)(=O)c2c(C)noc2C)CC1	-2.8%
75	COc1ccc(Oc2ncc3nc(-c4ccc(F)cc4)c(=O)n(Cc4cccs4)c3n2)cc1	25.1µM*
76	COc1ccc(OC)c(NC(=O)CSc2nnc(CCCO)n2-c2ccccc2)c1	2.9%
77	CC(=O)N1CCN(c2ccc(S(=O)(=O)N3CCCCC3)cn2)CC1	?
78	CCC(=O)N1CCc2cc(S(=O)(=O)N3CCc4ccccc43)ccc21	14.7%
79	CN(C)S(=O)(=O)c1ccc(C(=O)N2CCC(c3nc4ccccc4o3)CC2)cc1	-12.7%
80	COc1ccc(NC(=O)N2CCCC3(CCN(C(=O)c4cc(C(F)(F)F)cc(C(F)(F)F)c4)CC3)C2)cc1	-4.4%

(continued)
nr	canonical_smiles	HSD17B inh
81	Cn1c(=O)c2c(nc(SCC(=O)N3c4ccccc4CCc4ccccc43)n2C)n(C)c1=O	6.6%
82	COc1ccccc1OC(C)C(=O)O (stereo unspecified)	15.6%
83	Cc1ccc(Cn2c(Sc3nccc(C)n3)nc3c2c(=O)[nH]c(=O)n3C)cc1	0.4%
84	CCc1nnc(SCC(=O)Nc2ccc(C(C)=O)cc2)nc1CC	-6.5%
85	CCC1C(O)=C(c2ccccn2)C(=N)N1c1ccccc1 (stereo unspecified)	5.2%
86	Cc1cc(C)c(S(=O)(=O)Nc2nnc(C)s2)c(C)c1	3.9%
87	Cc1cc(Cl)ccc1OCC(=O)Nn1c(C)ccc1C	3.5%
88	CCn1nc(C(=O)OCC(=O)N2CCc3ccccc32)c2ccccc2c1=O	4.8%
89	CC(C)C(NC(=O)c1cccc(S(=O)(=O)N2CCOCC2)c1)C(=O)NCCc1ccccn1 (stereo unspecified)	-0.7%
90	CCCC[C@H]1C[C@@H]1[C@@H]1N(C(C)=O)[C@H](c2cccc(OC)c2)CC12CC2	-14.0%
91	CCC(C)NC(=O)c1c(C)cc(=O)oc1C (stereo unspecified)	-2.1%
92	O=C(CSc1ncccc1-c1nc2ccccc2[nH]1)N1CCN(c2ccccc2F)CC1	-29.6%
93	CCC1(CC)NC(=O)N(CC(=O)Nc2sc3c(c2C(N)=O)CCC3)C1=O	15.8µM*
94	CCOC(=O)c1cc2sccc2n1CC(=O)OC(C)C	-2.1%
95	CC(=O)Nc1ccc(S(=O)(=O)c2c(N)n(CCN3CCOCC3)c3nc4ccccc4nc23)cc1	31.6µM*
96	Cc1cc(C)nc(NC(=O)Nc2ccccc2C(F)(F)F)n1	-1.7%
97	COCC(=O)N1CCC2(CC1)CN(c1cccc(-c3ccccc3)c1)C2	31.6µM*
98	C1COC1	-4.4%
99	CCOC(=O)c1cnn(-c2nc(SC)nc3sc4c(c23)CCC4)c1N	-21.1%
100	CC(=O)C1=C(O)C(=O)N(CO)C1c1ccccc1F (stereo unspecified)	-10.4%
101	O=C(O)c1[nH]nc2c1COc1ccccc1-2	?
102	CN(C)S(=O)(=O)N1CCN(CC(=O)Nc2cc(Cl)ccc2Cl)CC1	10.9%
103	c1nc(NCCN2CCOCC2)c2cc(-c3ccoc3)ccc2n1	?
104	C=C1C(=O)O[C@@H]2[C@H]3O[C@]3(C)CCC=C(C)CC[C@@H]12	-1.9%
105	CCN(c1ccccc1)S(=O)(=O)c1ccc(C(=O)Nc2nnc(COC)o2)cc1	6.5%
106	CC(C(=O)NCc1ccccn1)N1C(=O)c2ccccc2C1=O (stereo unspecified)	3.6%
107	O=C(Cc1c(F)c(F)c(F)c(F)c1F)OC12CC3CC(C1)C(=O)C(C3)C2	0.4%
108	COc1cccc(Oc2c(C)oc3c(CN4CCOCC4)c(O)ccc3c2=O)c1	10µM*
109	CCN1CCN(c2ncc(C(=O)Nc3c(F)cc(F)cc3Br)c3ccccc23)CC1	-3.4%
110	CCN(CCCNC(=O)COc1cc(=O)n(C)c2ccccc12)c1ccccc1	-9.5%
111	CCSC(=N)N	4.2%&3.9%&2.6%
112	COCCn1c(=O)c(CCc2ccccc2)nc2cnc(N3CCOCC3)nc21	25.1µM*
113	CCN(CC)CCCN(Cc1cc2cc(OC)ccc2[nH]c1=O)C(=O)Nc1ccccc1	25.1µM*
114	O=C(CSc1ncc(-c2ccc(F)cc2)[nH]1)N1CCCCC1	1.3%
115	Cc1ccc2c(COC(=O)c3n[nH]c4ccccc34)cc(=O)oc2c1	31.6µM*
116	Cc1cc2c(SCc3ccccc3Cl)nc(N)nc2nc1C	32.3%[activator][11.4 µM]
117	COCCNC(=O)c1cc(Br)ccc1Cl	5.8%
118	COc1ccc(OC)c(C(=O)COC(=O)c2cc(C)oc2C)c1	?
119	Cc1cc(C)n(-c2ncnc3c2oc2ccccc23)n1	1.9%
120	C=C(C)C1Cc2nc(N)nc(C)c2C1 (stereo unspecified)	-27.9%
121	Nn1c(SCC(=O)Nc2ccc(F)cc2)nnc1-c1ccccn1	-0.6%
122	Cc1occc1-c1nnc(SCc2nc3ccccc3c(=O)n2CC#N)n1C	-8.1%
123	C=CCSc1nc2c(N)ncnc2n1[C@@H]1O[C@H](CO)[C@@H](O)[C@@H]1O	-2.0%[11.4 µM]
124	COc1cc(C2NC(=O)NC(C)=C2C(=O)OC2CCCC(C)C2)ccc1O (stereo unspecified)	-6.7%
125	CCc1cc2c(=O)n(Cc3ccco3)c(SCc3c(C)noc3C)nc2s1	?
126	NC(=O)C1(N2CCCCC2)CCN(CC(=O)Nc2ccccc2-c2ccccc2)CC1	0.4%
127	COCCNc1ncnc2nc[nH]c12	10.2%
128	Cc1ccc(CN2CCNC(=O)C2CC(=O)O)cc1 (stereo unspecified)	6.7%
129	COc1cccc(Nc2ncc3ncc(=O)n(C[C@H]4CCCO4)c3n2)c1	-3.5%
130	Cn1cc(/C(Cc2ccccc2)=N\O)c2ccccc21	-16.9%
131	CN(CCCNC(=O)C1CCCN(S(=O)(=O)c2cnc[nH]2)C1)c1ccccc1 (stereo unspecified)	0.6%
